T cruzi repl – T. cruzi replication inhibition; T. cruzi beta-gal in NIH3T3, luminescence, 90 h; hit rate 1.4% among 300,000; inhibition, % (concentration not given with the values);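 active = mean inhibition across valid replicates above about 55%, limit read from the data; inconclusive = mean below that limit but half or more replicates reach it; inactive = mean below it, under half of replicates reach it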;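 also: signal also drops with host cell toxicity which is not excluded here; 0% = plate median of DMSO wells and 100% = zero luminescence signal; higher percent means less beta-gal luminescence so fewer parasites; stock transfer was 50 nL into about 50 µL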
rRNA inh HTS – selective bacterial rRNA inhibition in E. coli; AID 720706; hit rate 1.6% among 350,000; GFP signal change (wild-type ribosome), % (no concentration beside the values); E. coli WT GFP vs humanized-ribosome RFP mutants, fluorescence, 24 h; active compounds read low; DMSO median 0, no signal -100;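 active = significant combined selectivity score with lowered wild-type GFP, culture density cut under 30%, mutant RFP and density less affected; inactive = any of these conditions unmet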; also: one replicate is shown; some compounds called inactive have numbers as strong as hits
RanGTP-Imp inh – disruptors of Ran-importin-beta complex formation – biochemical, FRET, CFP-Ran, YFP-importin-beta, homogeneous, primary screen; cell-free CFP-Ran/YFP-importin-beta FRET ratio; inhibition, % (test concentration not listed); hit rate 1.1% among 300,000; AID 2216;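 active = most replicates above 15%; inconclusive = exactly half above 15%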;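 also: 0% = DMSO wells and 100% = Ran loaded with GDP instead of GTP; wells of about 40 µL received 100 nL stock; the first replicate is given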
AF4-AF9 inh – MLL-AF4/AF9 protein interaction inhibition | AID 651704 | AlphaScreen, biotin-AF4 peptide binding to FLAG-AF9 | inhibition, % at 10 µM | hit rate 0.47% among 350,000;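 active = every replicate reaching a set inhibition limit, whatever the replicate mean, cut at about 25% in these data; inconclusive = mean inhibition reaches that limit but some replicates miss it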;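 also: 0% = plate neutral control median and 100% = total signal loss; the record names both 10 and 1 µM as test concentration; the first replicate is given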
Target sequence (P42568 whole entry, looked up): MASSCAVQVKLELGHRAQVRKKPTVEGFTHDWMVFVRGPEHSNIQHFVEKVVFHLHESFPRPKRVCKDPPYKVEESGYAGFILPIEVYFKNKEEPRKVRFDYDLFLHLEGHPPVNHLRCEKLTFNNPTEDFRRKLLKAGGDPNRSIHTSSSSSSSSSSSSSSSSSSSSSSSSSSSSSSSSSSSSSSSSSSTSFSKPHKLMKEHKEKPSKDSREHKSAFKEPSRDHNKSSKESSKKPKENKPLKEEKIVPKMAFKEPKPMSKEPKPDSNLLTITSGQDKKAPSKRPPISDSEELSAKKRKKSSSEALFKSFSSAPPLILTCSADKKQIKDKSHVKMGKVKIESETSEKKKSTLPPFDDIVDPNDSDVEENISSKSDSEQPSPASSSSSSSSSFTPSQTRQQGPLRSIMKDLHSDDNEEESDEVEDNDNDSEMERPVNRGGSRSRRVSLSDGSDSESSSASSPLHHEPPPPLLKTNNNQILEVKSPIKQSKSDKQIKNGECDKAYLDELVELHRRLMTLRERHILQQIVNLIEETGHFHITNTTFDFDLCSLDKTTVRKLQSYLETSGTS
FGF22 binding – shifts melting point of recombinant human FGF22; hit rate 1.5% among 340,000; recombinant FGF22 thermal shift, SYPRO orange fluorescence; percent of sucrose octasulfate shift, DMSO zero; calls only at 9.99 µM; Q9HCT0;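 active = melting point raised past a set limit in the mean and every replicate; inconclusive = no clear call; three in four hits are not shown here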
Target sequence (Q9HCT0 whole entry, looked up): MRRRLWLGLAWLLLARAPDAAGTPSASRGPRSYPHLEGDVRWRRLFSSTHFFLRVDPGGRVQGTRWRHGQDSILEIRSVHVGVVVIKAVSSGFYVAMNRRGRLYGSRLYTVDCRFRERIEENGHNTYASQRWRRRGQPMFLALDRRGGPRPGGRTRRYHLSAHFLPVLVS
Beta apoptosis – beta cell apoptosis inhibition | INS-1E cytokine-induced death, ATP luminescence, 48 h; percent of positive-control rescue, neutral wells zero | hit rate 0.8% among 300,000 | protection from apoptosis, % (concentration not given with the values);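 active = all replicates at 75% or more, or half of them and the mean; inconclusive = half reach 75% but not the mean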;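 also: 0% = cytokine-treated negative control wells and 100% = positive control rescue; higher means more ATP so stronger rescue from cytokine killing; wells of about 40 µL received 100 nL stock; the first replicate is given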
Calb FLC – affects C. albicans growth with fluconazole | hit rate 0.57% among 300,000 | C. albicans CaCi-2 (fluconazole-resistant clinical isolate) + fluconazole, Alamar Blue growth, 48 h | AID 1979 | growth inhibition, % (test concentration not listed);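 active = most replicates above 75%; inconclusive = exactly half above 75%; inactive = most below 75%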;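 also: all wells also contain fluconazole at 8 µg/ml as a sub-toxic cotreatment; 0% = median of DMSO wells and 100% = median of geldanamycin control wells; wells of about 8 µL received 7.5 nL stock; the first replicate is given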
ALR H2O2 inh – blocks human ALR sulfhydryl oxidase activity. P55789. purified ALR, DTT oxidation, H2O2 HRP-luminol luminescence. inhibition, % (test concentration not listed). hit rate 3.8% among 290,000. AID 485317;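 active = mean and each replicate at 75% or more; inconclusive = only one of the two met; inactive = neither met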;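 also: stock transfer was 7.5 nL into about 7.5 µL; 0% = neutral wells and 100% = wells with inactivated enzyme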
Target sequence (P55789 whole entry, looked up): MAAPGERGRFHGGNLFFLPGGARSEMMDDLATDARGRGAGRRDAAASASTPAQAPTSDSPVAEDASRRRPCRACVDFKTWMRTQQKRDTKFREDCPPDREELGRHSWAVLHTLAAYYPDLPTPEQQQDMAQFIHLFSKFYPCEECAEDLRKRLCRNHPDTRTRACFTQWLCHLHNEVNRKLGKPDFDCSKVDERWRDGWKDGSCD
rRNA inh HTS OD600 – further read-out of rRNA inh HTS, marked with its call; OD600 change, %; measured here: OD600 growth;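 optical density of the mix in the first replicate; 0 = DMSO median and -100 = no signal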
rRNA inh HTS RFP – recorded beside rRNA inh HTS, whose call it bears; RFP signal change, %; measured here: RFP humanized mutant strains;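 first replicate; 0 = DMSO median and -100 = no signal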
The depositor's hits bear a star; i = inactive; ? = inconclusive; / = no result given.

canonical_smiles,ALR H2O2 inh,rRNA inh HTS OD600,rRNA inh HTS,rRNA inh HTS RFP,Calb FLC,AF4-AF9 inh,T cruzi repl,FGF22 binding,RanGTP-Imp inh,Beta apoptosis
Cc1cnc(C(=O)OC(C)C(=O)c2c(C)[nH]c3ccccc23)cn1 (stereo not drawn),12,9,9,-0.5,-8,-16,7,i,5.0,-1
COc1ccc(OC)c(/C=C/C(=O)OCC(=O)Nc2ccc(Cl)c(S(=O)(=O)N(C)C)c2)c1,-2,-12,-18,2.3,-44,-4.0,12,i,3.7,-5
COc1cc2ncc(S(=O)(=O)c3ccccc3)c(N3CCCC(C)C3)c2cc1OC (stereo not drawn),-33,-16,2,-5.9,-4,6.6,35,i,2.2,11
C/C(=N\NC(=O)C1CC1)c1ccc(C)c(C)c1,-17,16,14,0.6,-4,-0.3,/,i,/,1
COc1ccc(-c2cc(C(F)(F)F)nc(NCc3ccco3)n2)cc1OC,-12,/,/,/,-8,/,12,/,-1.9,9
COc1ccc(Br)cc1CNC(=O)C1CCC(=O)N1C(C)C (stereo not drawn),-14,7,4,9.1,-3,0.9,-2,i,-1.2,/
CSc1cccc(NC(=O)N2CCN(C)CC2)c1,1,14,9,1.1,0,-8.5,6,i,-0.4,-2
CCN(CC(=O)Nc1ccccc1C(F)(F)F)C(=O)CCSc1ccc(F)cc1,-11,-17,-3,-2.9,-6,0.0,-13,i,/,-1
CCOc1ccc(S(=O)(=O)Nc2cccc(C(=O)NCCCN3CCCC3=O)c2)cc1,1,6,10,1.5,/,-2.0,/,i,/,-5
CCSc1c(-c2ccccc2)nc2c(C)cccc2c1C(=O)O,-5,/,/,/,-9,/,-26,/,-3.7,-3
Cn1cccc1Cc1nnc(SCC(=O)NC2CCCC2)n1-c1ccc(F)cc1,/,9,9,1.2,-3,1.3,-1,i,-1.6,-3
COc1ccc(C2C3=C(CCCC3=O)Nc3nc(C(F)(F)F)nn32)c(OC)c1OC (stereo not drawn),2,/,/,/,16,/,-1,/,4.7,-5
CCOc1ccc(-n2c(SCC(N)=O)nc3sc4c(c3c2=O)CCN(C)C4)cc1,/,-4,-3,-0.2,6,-4.0,/,i,2.2,2
Cc1ccnc(N/C=C(/NC(=O)c2ccccc2)C(=O)N/N=C\c2ccc(Cl)cc2)n1,-5,-9,-5,3.6,15,0.3,-6,i,-2.1,-3
O=C(NC1CCCCC1)N1CCCCCC1,2,-1,5,-0.8,-1,7.4,-1,i,0.2,-1
CCCOc1ccc(N2C(=O)CC(N3CCN(CCN=CC4C(=O)CC(C)(C)CC4=O)CC3)C2=O)cc1 (stereo not drawn),1,1,9,-0.1,0,-4.4,10,/,0.9,-1
CCNc1ccc(C(=O)OCC(=O)N2c3ccccc3NC(=O)C2(C)C)cc1[N+](=O)[O-],-2,-16*,-26*,-4.1*,5,13,-23,i,-3.3,-2
CS(=O)(=O)N(CC(=O)N/N=C/c1cccs1)c1cccc(Cl)c1Cl,0,/,/,/,3,/,-14,/,?,-5
COc1cc(Cl)c(C)cc1NC(=O)[C@@H]1CCCN1C(=O)c1cccs1,-6,/,/,/,17,/,9,/,-1.2,1
Cc1cc(C)n2nc(SCc3ncc(-c4ccccc4)o3)nc2n1,7,/,/,/,-9,/,16,/,-2.3,-5
O=C(NNC(=S)NC(=O)c1ccc(Br)cc1)c1cccc([N+](=O)[O-])c1,99*,-49,-41,-0.8,-12,-1.5,-21,i,4.1,1
CC(C)(CNC(=O)c1ccc([N+](=O)[O-])c(Cl)c1)CNC(=O)c1ccc([N+](=O)[O-])c(Cl)c1,-23,/,/,/,51,/,/,/,2.7,1
Cc1nn2c(NCCN(C)C)c3c(nc2c1-c1ccccc1)CCCC3,/,-24,-5,-1.6,-1,14,/,i,0.3,38
CC(=O)c1ccc(NC(=O)CCCN2C(=O)/C(=C/C(C)=C/c3ccccc3)SC2=S)cc1,/,11,-3,6.4,0,2.9,20,i,2.9,-5
NC(=O)c1ccc(NS(=O)(=O)c2ccc(Br)s2)cc1,-1,-5,4,-2.2,/,-2.0,/,i,/,-5
CCN1CCc2nc(NC(=O)c3ccc4c(c3)OCCO4)sc2C1,-1,/,/,/,19,/,-5,/,80*,1
CCC(C)(C)NC(=O)C(c1ccncc1)N(C(=O)c1sc(C)nc1C)c1ccc(F)cc1 (stereo not drawn),-2,17,18,2.2,-13,-1.2,0,i,-3.9,0
Cc1ccc(C(=O)COC(=O)c2n[nH]c(=O)c3ccccc23)cc1,-17,/,/,/,13,/,-14,/,-0.3,-5
NC(=O)CSc1nc2ccccc2nc1SCC(N)=O,-5,12,13,4.1,13,-3.3,6,i,-3.0,-2
CC1CC(c2ccccc2)n2nc(NC(=O)CCc3ccccc3)nc2N1 (stereo not drawn),-7,/,/,/,-4,/,15,/,?,1
Cc1oc(S(=O)(=O)N2CCOCC2)cc1C(=O)Nc1ccc(F)cc1,15,9,2,-0.9,1,0.4,-14,i,-11,-2
COC(=O)C[C@](O)(CCCC(C)(C)O)C(=O)O[C@@H]1C(OC)=C[C@]23CCCN2CCc2cc4c(cc2[C@H]13)OCO4,-13,/,/,/,/,/,41,/,1.1,78*
Cn1c(CNC(=O)C(Cc2ccccc2)NC(=O)c2ccccc2)cc(=O)n(C)c1=O (stereo not drawn),7,13,11,0.7,15,-1.5,-15,i,4.7,1
COc1cc(/C=N/n2cnnc2)ccc1OCC(=O)N1CCOCC1,1,3,8,-0.2,0,-3.9,-23,i,-2.7,5
CC(C)(C)c1ccc(C(=O)N2CCCN(c3ccc([N+](=O)[O-])cn3)CC2)cc1,6,-44,-30,3.0,0,/,12,i,-0.9,2
CCN1CCCC1CNC(=O)CCNC(=O)c1cc(OC)c(OC)c(OC)c1 (stereo not drawn),-12,/,/,/,?,/,-5,/,-2.7,-3
CC(C)CC(=O)NC(=S)Nc1nc(-c2cccc3ccccc23)cs1,-2,/,/,/,-9,/,28,/,-0.1,5
COc1ccc(-c2sc3ccc(N4CCOCC4)cc3c2C#CCCO)cc1,0,-61,-36,7.4,/,3.2,/,i,/,-2
O=C(N/N=C/c1ccccc1O)NC12CC3CC(CC(C3)C1)C2,28,-82,-68,-24,-6,3.6,6,i,1.9,7
Nc1nc(SCCO)[nH]c(=O)c1NC(=O)c1ccc(Br)o1,6,6,4,0.1,/,-1.2,-7,i,/,0
Cc1nnc2sc(-c3ccc(-c4ccc(Cl)c(C(F)(F)F)c4)o3)nn12,-2,/,/,/,-7,/,29,/,0.3,10
COC(=O)c1sccc1NC(=O)CC1C(=O)NCCN1C(=O)Nc1ccccc1 (stereo not drawn),-8,-14,-1,-0.6,6,5.0,5,i,2.6,-7
Cc1ccc[n+](C(C)C(=O)c2ccc(Cl)cc2)c1 (stereo not drawn),-4,11,15,1.9,0,-9.4,-11,i,-3.3,-4
O=C(Cn1cc([N+](=O)[O-])cn1)NCC1CCCO1 (stereo not drawn),49,2,-6,2.1,-2,-8.7,-8,i,0.4,1
CC(Nc1nc(=S)nc(Nc2ccc(F)cc2)[nH]1)c1ccccc1 (stereo not drawn),-6,9,7,-0.4,2,4.1,19,i,-4.3,21
O=C(COC(=O)CNC(=O)c1ccc(F)cc1)Nc1cccc(S(=O)(=O)N2CCCC2)c1,-17,-3.7*,-18*,1.3*,-11,1.1,-5,i,-0.2,1
CC(C)(C)c1ccc(S(=O)(=O)N2CCN(CC(O)COCC3CCCO3)CC2)cc1 (stereo not drawn),-5,-12,-3,2.1,/,-22,/,i,/,7
COc1ccc(-n2nc(C(=O)NCC(=O)NC3CCCC(C)C3C)c3ccccc3c2=O)cc1 (stereo not drawn),-2,-24,-9,1.8,24,0.1,15,i,-5.0,8
O=C(NCc1cccs1)C(=O)c1cn(CC(=O)N2CCOCC2)c2ccccc12,-2,3,14,2.1,0,0.0,-5,i,-2.8,/
Cc1ccc2nc(SCC(=O)NCc3ccco3)nc(=O)n2c1,1,9,2,-1.6,-2,-21,-4,i,-2.1,2
CCc1nn(C(CC)C(=O)NCCCc2ccccc2)c(=O)c2cc3occc3n12 (stereo not drawn),3,-34,-8,3.0,21,1.3,18,i,4.6,0
Cn1c(CC(=O)NC(C)(C)CO)c(Sc2ccccc2)c2ccccc21,20,-80,-53,-30,21,-1.4,13,i,?,-18
CCOc1cc(S(=O)(=O)N2CCCCCC2)ccc1F,-1,/,/,/,-40,/,-5,/,2.1,-11
CC12CCC(=O)N1C(C(=O)NCc1ccc(Cl)cc1Cl)CS2 (stereo not drawn),0,3,12,1.3,1,0.5,5,i,-4.9,3
COc1ccc(N2CC(C(=O)N3CCCC(C)C3)CC2=O)cc1 (stereo not drawn),-7,9,9,1.2,0,-1.1,-7,i,0.2,-8
CC(=O)N1CCN(C(=S)Nc2cc(S(=O)(=O)N3CCOCC3)ccc2Cl)CC1,13,6,8,-1.3,-4,-1.1,-4,i,5.6,-3
CCn1cc(C(=O)N[C@@H](CCSC)C(=O)NCCO)c(=O)c2cc3c(cc21)OCO3,-1,10,9,-0.1,-2,-0.7,-7,i,0.2,-7
COc1cc2c(cc1OC)C(C)N(C(=O)c1cc3c(=O)oc4ccc(C)cc4c3s1)CC2 (stereo not drawn),-9,6,2,-3.4,-11,-4.6,7,i,?,3
Cc1ccc(-c2csc(NC(=O)C3=NN(c4ccccc4)C(=O)CC3)n2)cc1,-3,-2,-4,4.7,3,-1.7,3,i,?,21
O=C(CCn1c(=O)oc2ccccc21)N(Cc1ccccc1)c1ccccn1,-4,/,/,/,11,/,-2,/,-0.3,-7

(further entries)
canonical_smiles,ALR H2O2 inh,rRNA inh HTS OD600,rRNA inh HTS,rRNA inh HTS RFP,Calb FLC,AF4-AF9 inh,T cruzi repl,FGF22 binding,RanGTP-Imp inh,Beta apoptosis
CCOC(=O)c1c(NC(=O)COC(=O)c2nccnc2N)sc(C(=O)N(C)C)c1C,-1,4,2,0.1,2,-18,1,i,/,-6
Cc1ccc2nc(SCC(=O)Nc3ccc(Br)cc3)nc(=O)n2c1,-7,3,6,-3.4,-5,-9.5,1,i,5.7,1
Cc1ccccc1Cn1c(Cc2ccccc2)nc2ccccc21,-21,/,/,/,-5,/,28,/,1.6,-1
O=C(c1cc2nc(-c3ccccc3)cc(-c3ccccc3)n2n1)N1CCN(C(=O)c2ccco2)CC1,-3,/,/,/,-8,/,29,/,5.6,5
CCOC(=O)c1c(NC(=O)C[n+]2ccccc2)sc2c1CCCC2,-69,-4,-13,1.2,-32,7.3,7,i,-2.3,-2
Cn1c(SCc2c(F)cccc2Cl)nnc1-c1cnccn1,-4,/,/,/,-8,/,-2,/,5.8,-2

Assay outcomes as filed in PubChem BioAssay.

This is a subset; the hit share may differ from the screen's.
